D2 agonist – Beta-Arrestin HTS for Positive Allosteric Modulators of the Human D2 Dopamine Receptor: Agonists. D(2) dopamine receptor (Homo sapiens), P14416. DiscoveRx PathHunter D2 beta-arrestin, luminescence, 90 min; 100% = 57 uM dopamine signal. activation, % (no concentration beside the values). actives 0.084% (n = 360,000). AID 624465, 2012; in the data active = activation above about 40%; inconclusive = about 15% to 40%; inactive = below about 15%; further: compound concentration not given in the record; the text of the record calls up to 30% inactive
Target sequence (P14416 whole entry, looked up): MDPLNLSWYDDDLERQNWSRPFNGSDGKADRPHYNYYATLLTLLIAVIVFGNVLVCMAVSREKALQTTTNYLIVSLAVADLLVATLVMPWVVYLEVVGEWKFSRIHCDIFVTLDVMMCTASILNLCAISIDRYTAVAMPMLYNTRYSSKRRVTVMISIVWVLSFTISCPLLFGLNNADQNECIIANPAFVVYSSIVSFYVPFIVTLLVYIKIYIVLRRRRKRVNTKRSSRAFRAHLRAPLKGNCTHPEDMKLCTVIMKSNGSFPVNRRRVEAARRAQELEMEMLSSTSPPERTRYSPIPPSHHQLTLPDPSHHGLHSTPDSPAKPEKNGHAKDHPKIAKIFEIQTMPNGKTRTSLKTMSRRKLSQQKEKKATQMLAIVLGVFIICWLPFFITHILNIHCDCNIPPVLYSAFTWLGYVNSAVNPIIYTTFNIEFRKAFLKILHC
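Agonist mode: compounds alone added to overnight-plated D2 PathHunter cells for 90 min at 37 C, with 57 uM final dopamine (EC100) defining full response. Beta-arrestin recruitment detected by chemiluminescent reagent, read after 1 h at ambient temperature.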
Six1-Eya2 inh – qHTS Assay for Inhibitors of the Six1/Eya2 Interaction | Homeobox protein SIX1 (Homo sapiens) + Protein phosphatase EYA2 (Homo sapiens), … | AlphaScreen GST-Six1/His-Eya2 binding, biochemical; active compounds read low; control for the full effect not named in the record | activity change, % (test concentration not listed) | actives 0.56% (n = 360,000) | AID 651725, 2012; in the data active = activity change below about -65%; inconclusive = about -30% to -65%; inactive = above about -30%; further: on the % scale 0 is the no-effect control and ±100 the full control effect
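Six1/Eya2 binding was read as AlphaScreen signal after compounds were pinned into GST-Six1 plus His-tagged Eya2 (5X stock 250/500 nM) in pH 8.0 Tris/NaCl/TCEP buffer, beads added, then incubated 1 h, 37 C, dark.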
D2 PAM – Beta-Arrestin HTS for Positive Allosteric Modulators of the Human D2 Dopamine Receptor: Potentiators; AID 624464, 2012; actives 0.23% (n = 360,000); DiscoveRx D2 beta-arrestin cells, luminescence, 90 min; 100% = 57 uM dopamine signal; D(2) dopamine receptor (Homo sapiens), P14416; potentiation, % (test concentration not listed); active = potentiation of 50% or more; inconclusive = 30% to 50%; inactive = 30% or less;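 further: compound concentration not given in the record; tested on top of an EC20 dose of dopamine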
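D2 cells co-treated with compound plus 50 nM dopamine (EC20) for 90 min at 37 deg C to detect potentiation. Beta-arrestin recruitment was read as enzyme-fragment luminescence after 1 h at ambient temperature. Full response was set by 57 uM dopamine.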
CtBP-E1A blk – qHTS Assay for Inhibitors of the CtBP/E1A Interaction | CtBP / adenovirus E1A interaction (AlphaScreen) | AlphaScreen GST-E1A/His-CtBP binding, 1536-well; active compounds read low; control for the full effect not named in the record | activity change, % (concentration not given with the values) | actives 0.49% (n = 340,000) | AID 651724, 2012; in the data active means activity change below about -65%; inconclusive means about -30% to -65%; inactive means above about -30%; further: on the % scale 0 is the no-effect control and ±100 the full control effect
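AlphaScreen with 125 nM GST-E1A and 125 nM His-CtBP (5X stocks) in Tris pH 8.0, 300 mM NaCl, BSA, Tween 20, TCEP. Compounds preincubated 2 h at 37 deg C, then glutathione donor/nickel acceptor beads added for 1 h at 37 deg C in dark.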
PINK1 modulator – A Quantitative High throughput Screen to Identify Chemical Modulators of PINK1 Expression; PINK1 immunofluorescence, high-content cytometry, 24 h; Potency, µM (top dose mostly 76.6 µM), for inactives: at the top dose activation (PINK1 increase), most hits filed as activators; actives 0.2% (n = 410,000); active = well fitted activation curve with a large enough effect; inconclusive = small, poorly fitted or top-dose-only effect; inactive = flat fitted curve, though single readings scatter; cell line not stated here;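 further: potency means the concentration at half of the fitted maximal effect; % of control where 0% means no effect; nearly all actives have a fitted effect of over 65% in size; a mitochondrial uncoupler was the plate control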
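Stable cell line, 250 cells/well, 12 h attachment; compounds pinned at 5 concentrations, 24 h; CCCP control. Fixed with nuclear dye, primary antibodies 12 h at 10 degrees C, secondary plus cell stain; laser-scanning cytometer read.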
TRPML1 ag – qHTS for Agonists of the Human Mucolipin Transient Receptor Potential 1 (TRPML1); activation, % (test concentration not listed); Mucolipin-1 (Homo sapiens), Q9GZU1; TRPML1-expressing cells, Ca2+ dye fluorescence, FDSS; host cell line not named in the record; reference of the full effect not given here; actives 0.12% (n = 410,000); in the data active = activation above about 50%; inconclusive = about 30% to 50%; inactive = below about 30%; further: 0% is about no effect; the text of the record puts the active cut at 80%
Target sequence (Q9GZU1 whole entry, looked up): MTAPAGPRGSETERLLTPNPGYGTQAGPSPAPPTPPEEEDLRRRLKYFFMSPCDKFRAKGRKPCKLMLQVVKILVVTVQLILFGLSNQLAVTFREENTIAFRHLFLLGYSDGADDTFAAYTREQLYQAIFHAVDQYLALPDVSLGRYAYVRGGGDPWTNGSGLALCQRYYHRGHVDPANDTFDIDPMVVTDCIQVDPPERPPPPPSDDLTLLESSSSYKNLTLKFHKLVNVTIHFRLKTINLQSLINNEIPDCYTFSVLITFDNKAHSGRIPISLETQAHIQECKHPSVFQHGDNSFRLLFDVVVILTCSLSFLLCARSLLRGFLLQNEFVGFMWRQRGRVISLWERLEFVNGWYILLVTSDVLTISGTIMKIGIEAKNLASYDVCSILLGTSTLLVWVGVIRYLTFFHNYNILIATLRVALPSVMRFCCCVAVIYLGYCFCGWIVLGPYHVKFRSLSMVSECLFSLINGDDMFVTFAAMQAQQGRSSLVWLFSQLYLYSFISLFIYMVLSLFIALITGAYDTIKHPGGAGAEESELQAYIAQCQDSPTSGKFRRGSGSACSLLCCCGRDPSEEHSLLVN
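Kinetic FDSS Ca2+ read in Tet-induced TRPML1-DL cells (ABD Ca8 dye plus quencher, 45-90 min RT loading): baseline, then compound, then 110 s agonist window; EC80 agonist 54-4 at 4uM final added afterwards for a 110 s antagonist window.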
An asterisk follows results filed as active; ? = inconclusive; . = not tested or not shown; & = joins results of further samples; [ ] = dose if it differs, or a comment. This is a random part of the collection (roughly 1.3% active in at least one column).

SMILES	D2 agonist	Six1-Eya2 inh	D2 PAM	CtBP-E1A blk	PINK1 modulator	TRPML1 ag
COc1cccc(C(=O)N(C)CC2CCN(CCc3cccc(C(F)(F)F)c3)CC2)c1	0.1	-2	-81	.	0.3%	.
CCc1ccc(OCCOCCN2CCN(C)CC2)cc1	0.5	3	-23	.	0.1%	.
Cc1cc(=O)oc2cc(NC(=S)NNC(=O)c3c(Cl)cnn3C)ccc12	-6.5	?	-15	18	4.3%	0.9
CCCCc1nc(SCC(=O)Nc2cccc(Cl)c2)n[nH]1	2.6	-21	-7	-3	-0.9%	1.0
CC(C)OCCCNC(=O)C(Cc1ccccc1)NS(=O)(=O)c1ccc2c(c1)CCC(=O)N2 (configuration not stated)	-2.7	-3	2	0	-0.9%	-0.4
COC(=O)C1=NNC(C(=O)c2ccco2)C1c1ccccc1 (configuration not stated)	-1.5	-1	-12	.	-1.0%	0.6
NS(=O)(=O)c1cccc(NC(=O)COC(=O)c2cc([N+](=O)[O-])ccc2N2CCCC2)c1	-3.6	-12	-29	-3	2.2%	-0.2
O=C(c1ccccc1)c1ccccc1C(=O)c1ccccc1	2.0&-8.9	10&-10	1&-5	6&-1	0.5%&2.5%	3.1&1.1
Cc1ccc(CSc2cc(C)[nH]c(=O)n2)cc1	0.6	12	-6	.	0.4%	-0.2
CCCN(CCC)Cc1cc(=O)oc2cc(C)c(Cl)cc12	2.9	21	-3	-10	9.3%	-0.6

Complete entries, looked up by structure. Order of screens: D2 agonist	Six1-Eya2 inh	D2 PAM	CtBP-E1A blk	PINK1 modulator	TRPML1 ag
`NS(=O)(=O)c1cccc(NC(=O)COC(=O)c2cc([N+](=O)[O-])ccc2N2CCCC2)c1` is entered as -3.6	-12	-29	-3	2.2%	-0.2
`O=C(c1ccccc1)c1ccccc1C(=O)c1ccccc1` is entered as 2.0&-8.9	10&-10	1&-5	6&-1	0.5%&2.5%	3.1&1.1
`CCc1ccc(OCCOCCN2CCN(C)CC2)cc1` is entered as 0.5	3	-23	.	0.1%	.
`Cc1ccc(CSc2cc(C)[nH]c(=O)n2)cc1` is entered as 0.6	12	-6	.	0.4%	-0.2
`Cc1cc(=O)oc2cc(NC(=S)NNC(=O)c3c(Cl)cnn3C)ccc12` is entered as -6.5	?	-15	18	4.3%	0.9

(next part)
SMILES	D2 agonist	Six1-Eya2 inh	D2 PAM	CtBP-E1A blk	PINK1 modulator	TRPML1 ag
Cc1cnc(NC(=O)CN2CCN(c3ccccn3)CC2)s1	-4.0	-1	-18	-3	?	-1.0&-0.4
C#CCOCCOCCOCCNc1nc(N2CCN(C(=O)Cn3cc(CCCCN)nn3)CC2)nc(N2CCN(C(=O)Cn3cc(CCCN=C(N)N)nn3)CC2)n1	-0.4	2	-1	6	1.1%	0.2
CC(Nc1nc(N2CCCCC2)nc2ccccc12)c1ccccc1 (configuration not stated)	-3.5	1	-55	-1	.	0.6
CN(CCc1ccccc1)C(=O)c1cccc(NC(=O)Cc2cccc(NC(=O)C3CCCN(C(=O)C4CCCC4)C3)c2)c1 (configuration not stated)	-0.8	-2	.	-1	0.4%	0.0
CCOC(=O)CNC(=O)C1c2ccccc2C(=O)N(c2ccc(OC)cc2)C1c1ccc(OC)cc1 (configuration not stated)	-4.5	0	-8	-11	2.7%	0.2
CC(=O)Nc1nn(CC(C)C)c2nc3ccc(C)cc3cc12	-1.4	1	-14	-4	5.8%	-0.7
COC(=O)C1CN(C(=O)COc2ccc(Cl)cc2Cl)c2ccccc2O1 (configuration not stated)	-2.0	0	-1	8	0.4%	.
CCc1ncn(CCc2ccccc2OC)c1C(C)C	.	-6	.	0	2.8%	-0.4
O=C(CSc1nnc(Cc2ccccc2)o1)c1ccc(F)cc1	-1.0	3	-3	-15	2.1%	3.2
COc1ccc(-n2c(=S)[nH]c(=O)c3cccnc32)cc1	2.6	13	-1	4	-0.7%	3.0
Cc1csc(=O)n1CC(=O)OCC(=O)NNC(=O)c1ccc([N+](=O)[O-])cc1	3.4	1	-2	-17	-0.7%	0.2
CCCOc1ccc(-c2nn(-c3ccccc3)cc2/C=C2\SC(=S)N(C3CCS(=O)(=O)C3)C2=O)cc1 (configuration not stated)	-0.2	-3	-19	-4	5.6%[38.3 µM]	0.5
CN(C)S(=O)(=O)c1cccc(NC(=O)COC(=O)/C=C/c2ccco2)c1	-0.1	-3	-15	0	1.1%	3.4
O=C(c1cccc([N+](=O)[O-])c1)N1CCN(S(=O)(=O)/C=C/c2ccccc2)CC1	6.2	-1	5	-6	0.2%	3.9
CCn1c(C)c(C2=CCN(S(=O)(=O)c3ccc(C)cc3)CC2)c2ccccc21	-4.4	-24	-3	-18	1.0%	-0.1
O=C(Nc1ccc2cn[nH]c2c1)c1c(Cl)cccc1Cl	-2.3	2	-14	12	-0.9%	0.4
CC(=O)/C(=N/Nc1cccc(Cl)c1)Sc1nnc(C(O)c2ccccc2)n1-c1ccccc1 (configuration not stated)	-4.1	1	-4	.	2.1%	-0.2
C=CCc1cc(/C=N/n2cnnc2)cc(OCC)c1O	-0.8	0	3	0	-0.6%	-0.1
Cc1cc(SCC(=O)c2ccc(O)c(O)c2)nc2ccccc12	-2.2	-2	-2	1	8.5%	2.9
Cc1cccc(OC(=O)c2sc(Cl)nc2C)c1	-6.6	4	4	9	11%	-1.7

Reformatted: 2 of the compounds above
| canonical_smiles | D2 agonist | Six1-Eya2 inh | D2 PAM | CtBP-E1A blk | PINK1 modulator | TRPML1 ag |
| --- | --- | --- | --- | --- | --- | --- |
| O=C(Nc1ccc2cn[nH]c2c1)c1c(Cl)cccc1Cl | -2.3 | 2 | -14 | 12 | -0.9% | 0.4 |
| CC(=O)/C(=N/Nc1cccc(Cl)c1)Sc1nnc(C(O)c2ccccc2)n1-c1ccccc1 (configuration not stated) | -4.1 | 1 | -4 | . | 2.1% | -0.2 |

Later entries
SMILES	D2 agonist	Six1-Eya2 inh	D2 PAM	CtBP-E1A blk	PINK1 modulator	TRPML1 ag
N#Cc1ccc(NC(=S)N2CCC3CC2c2cc(-c4ccc5c(c4)OCO5)ccc23)cc1 (configuration not stated)	-0.8	-16	-4	-7	0.5%	-0.6
O=C(Nc1cccnc1)C1COc2ccccc2O1 (configuration not stated)	-2.0	5	-16	-1	-0.2%	-0.1
CCCCC(=O)Nc1c(O)c2ccccc2[nH]c1=O	0.7	7	8	2	0.0%[38.3 µM]	1.2
CC(C)CCn1c(=S)[nH]c2ncccc2c1=O	-9.0	3	12	4	0.1%	2.4
COC(=O)c1ccc(C(=O)OC)c(NC(=O)CSCc2ccccc2Br)c1	-1.3	7	0	0	8.8%	-1.0
CCOC(=O)c1c(N)sc2c(OC)c(Br)ccc12	-4.5	-3	0	7	-1.1%	-0.3
Cc1cccc(CSc2nnc(-c3cnccn3)n2C)c1	-5.0	5	-8	11	-1.2%	-0.4
CCCCCC(=O)Nc1cc2[nH]c(=O)cc(COC)c2cc1C	-2.5	8	-4	-4	-1.1%	0.1
Cc1ccc(/C=C/C(=O)c2c(C)nc3ccccn23)cc1	-0.6	-16	-5	-1	-4.6%	-0.4
c1ccc(-n2ncc3c(N4CCN(CCOc5cccc6ccccc56)CC4)ncnc32)cc1	1.3	0	-4	1	0.2%	4.5
O=C(O)CNS(=O)(=O)c1ccc2c(c1)C(=O)c1cc(S(=O)(=O)NCC(=O)O)ccc1-2	-6.1	-20	-9	-19	-0.8%	0.2
COc1ccc(-c2ccc3c(c2)C2CC3CCN2C(=O)C2CCCCC2)cc1 (configuration not stated)	-2.6	-4	-15	-7	2.0%	3.9
CCOC(=O)c1cc2ccc(OC)cc2oc1=O	1.3	5	-8	2	1.6%	-0.8
Cc1ccc(NC(=O)Cn2c3ccc(F)cc3c3nc4n(c(=O)c32)CCS4)cc1F	-6.5	-2	-3	7	-0.1%	-0.1
Cc1c(Cl)cccc1NC(=S)NCC(C)C	-2.8	-2	0	-7	0.1%	0.0
O=C1NC(=S)N/C1=C\c1cccc([N+](=O)[O-])c1	1.0	-8	-10	10	.	-0.5
CN(C(=O)c1ccccc1C(=O)OCC(=O)Nc1cccc(Br)c1)c1ccccc1	-1.3	12	-12	.	4.6%	-1.6
C[C@H]1O[C@H](O[C@H]2[C@H](O[C@@H]3CC[C@@]4(C)C(CC[C@]5(C)C4CC=C4[C@@H]6CC(C)(C)CC[C@]6(C(=O)O[C@@H]6O[C@H](CO)[C@@H](O)[C@H](O)[C@H]6O)CC[C@]45C)C3(C)C)O[C@H](C(=O)O)[C@@H](O)[C@@H]2O)[C@@H](O)[C@@H](O)[C@@H]1O (some centres not stated)	-3.4	25	1	0	1.6%	-0.1
COc1ccc2c(c1)C(C)CC(C)(C)N2C(=O)CSc1ncn[nH]1 (configuration not stated)	-2.5	0	-7	3	-0.2%	-1.6
CCOC(=O)COn1c(=O)c(-c2cc3ccccc3o2)[n+]([O-])c2ccccc21	-4.5	5	-15	-2	0.3%	5.6
CC1CCN(c2nc3c(c(=O)n(C)c(=O)n3C)n2CCSc2ncccn2)CC1	-4.4	4	-5	-1	-0.3%	-0.5
Cc1cc(C)nc(N2CCC(C(=O)NC3CCCc4ccccc43)CC2)n1 (configuration not stated)	-1.1	4	-11	14	25%[38.3 µM]	1.9
Cc1ccc2c(c1)C(=O)CC(c1ccc3c(c1)OCCO3)O2 (configuration not stated)	0.1	-2	-4	17	3.2%	2.9
COc1ccc(C2=C/C(=C\c3ccccc3OC(C)=O)C(=O)O2)cc1	-26	2	5	.	5.8%	.
Cc1cc(Br)cc2c(C(=O)NCC3CCCO3)cc(-c3cccs3)nc12 (configuration not stated)	-3.4	7	-12	-5	21%	0.3
COC(=O)c1ccc(NC(=S)NCCc2cccc(C)c2)cc1	1.1	-2	-11	4	-1.5%	1.1
O=S(=O)(c1ccc(Br)cc1)N1CCOC12CCCCC2	-0.1	10	-5	-2	10%	0.5
CC(=O)Nc1ccc(C2=CC(=O)C[C@H](c3ccc4c(c3)OCO4)C2)cc1	0.8	-14	-3	-3	2.6%	1.5
Cc1cc(C)nc(SCc2cc(=O)c(OC(=O)c3ccc(Cl)c([N+](=O)[O-])c3)co2)n1	-4.5	-21	-22	24	3.9%	-0.7

Screens as filed in PubChem BioAssay.
